HIV Env fusion: inhibitors of HIV-1 Env-driven cell-cell fusion, primary screen, HeLa-JRFL effector, CEM21 target cells, luciferase. inhibition, % at 12.3 µM. actives 1.1% (n = 360,000). AID 651610, 2012;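 active means mean replicate inhibition score of at least 50 and every replicate individually at or above 50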;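 further: 0% = plate neutral controls and 100% = maraviroc near 300 nM; one replicate is shown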
PABP polyA inh: PABP poly(A) RNA binding inhibitors, primary screen, biochemical, fluorescence polarization, uHTS; inhibition, % at 35 µM; actives 1% (n = 290,000); AID 2014, 2009; Polyadenylate-binding protein 1 (Homo sapiens), P11940;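 active means 50% or more with normal probe brightness, or confirmed in later tests; about a fifth of its hits are not listed in these tables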;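 further: calls also rest on retests at 20 µM and on dose response follow-up; controls were probe without protein and protein plus probe with vehicle; some compounds called inactive have numbers as strong as hits; many hits fall short of the cut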
Target sequence (P11940 whole entry, looked up): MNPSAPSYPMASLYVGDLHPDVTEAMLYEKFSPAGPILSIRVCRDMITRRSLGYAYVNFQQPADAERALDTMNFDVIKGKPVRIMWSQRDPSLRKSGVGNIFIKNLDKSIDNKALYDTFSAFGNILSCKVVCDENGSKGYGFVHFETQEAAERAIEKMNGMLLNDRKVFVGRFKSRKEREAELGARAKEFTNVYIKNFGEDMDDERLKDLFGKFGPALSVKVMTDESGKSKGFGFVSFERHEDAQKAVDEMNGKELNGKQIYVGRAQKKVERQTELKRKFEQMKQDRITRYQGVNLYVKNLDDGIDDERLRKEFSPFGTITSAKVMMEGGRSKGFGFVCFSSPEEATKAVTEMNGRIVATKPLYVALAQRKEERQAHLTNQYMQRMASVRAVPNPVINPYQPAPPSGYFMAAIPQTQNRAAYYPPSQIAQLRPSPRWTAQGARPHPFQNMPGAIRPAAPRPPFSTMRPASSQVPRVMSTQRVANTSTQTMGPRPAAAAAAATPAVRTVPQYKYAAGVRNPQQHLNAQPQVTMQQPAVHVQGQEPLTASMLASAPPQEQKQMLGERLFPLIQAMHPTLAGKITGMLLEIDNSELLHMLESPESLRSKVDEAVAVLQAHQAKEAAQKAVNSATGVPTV
Rce1 inhib: yeast Rce1p protease inhibitors, primary screen, biochemical, fluorescence, cell-free homogeneous | CAAX prenyl protease 2 (Saccharomyces cerevisiae (strain ATCC 204508 / S288c)), Q03530 | actives 0.27% (n = 290,000) | yeast membranes, quenched prenylated peptide cleavage fluorescence | AID 2563, 2010 | calls only;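 active means fall in fluorescence gain of 50% or more versus controls, with final raw signal at or below 3038400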;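 further: plate controls were neutral control wells for no effect and wells lacking membranes for full effect; tested at 10 µM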
Target sequence (Q03530 whole entry, looked up): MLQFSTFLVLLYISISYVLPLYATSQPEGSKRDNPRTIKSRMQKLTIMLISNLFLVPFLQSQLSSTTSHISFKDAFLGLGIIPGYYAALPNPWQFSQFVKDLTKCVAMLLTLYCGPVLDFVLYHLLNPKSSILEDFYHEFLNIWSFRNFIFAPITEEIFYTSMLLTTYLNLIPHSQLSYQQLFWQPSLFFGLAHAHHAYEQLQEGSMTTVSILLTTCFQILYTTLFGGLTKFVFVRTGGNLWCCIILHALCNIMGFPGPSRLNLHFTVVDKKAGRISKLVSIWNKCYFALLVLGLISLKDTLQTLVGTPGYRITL
eIF4H FP inh: human eIF4H binding inhibitors, primary screen, translation initiation inhibitor project, biochemical, uHTS, fluorescence polarization; Eukaryotic translation initiation factor 4H (Homo sapiens), Q15056; eIF4H fluorescence polarization binding assay; inhibition, % at 35 µM; actives 0.94% (n = 290,000);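 active means 50% or more with normal probe brightness, or confirmed in later tests; about a fifth of its hits are not listed in these tables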;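 further: calls also rest on retests at 20 µM and on dose response follow-up; 0% = protein and probe with vehicle and 100% = probe without protein; strong numbers were not always called active; many hits fall short of the cut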
UUG fidelity: modulators of yeast start codon fidelity, primary screen, whole organism, S. cerevisiae, single point, plate reader. S. cerevisiae UUG-firefly luciferase reporter, luminescence/redox ratio. activity score, % at 18.7 µM. actives 0.13% (n = 350,000). AID 602363, 2012;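 active means replicate mean at a twofold rise or more, about +100% in these data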;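 further: firefly luciferase made from a UUG start codon reports start codon fidelity; reporter light over untreated wells divided by growth signal over untreated wells; some hits fall short of that in this replicate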
CSC inhib: cancer stem cell viability inhibitors, primary screen, luminescence | cancer stem cell-like cells viability | inhibition, % at 7.5 µM | actives 1.1% (n = 300,000);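 active means mean at 75% or more and at least half the replicates too; tested in HMLE shEcad cells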;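 further: 0% = median of negative and 100% = median of positive control wells; the first replicate is given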
MT1-MMP act inh: blockers of MT1-MMP proenzyme processing, primary screen, HT1080 RFP-PRO-GFP cells, GFP/RFP fluorescence; actives 0.061% (n = 360,000); Matrix metalloproteinase-14 (Homo sapiens), P50281; GFP/RFP ratio fluorescence, overnight; percent of plate control window, DMSO zero; AID 651647, 2012; GFP/RFP ratio change, % at 20 µM;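 active means GFP/RFP ratio change of at least 30% with cell ATP level not reduced by more than half and red fluorescence within 50% of control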; further: strong numbers were not always called active
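Test system: HT1080 cells expressing an RFP-PRO-GFP fluorescent reporter construct / Compound dosing: single-point 20 µM compound, 1% DMSO / Schedule: cells overnight before dosing, compound overnight, 37 °C, 5% CO2 / Evaluation: GFP/RFP fluorescence ratio / Control set: DMSO and RFP-L50D-GFP cell wells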
MT1-MMP act inh RFP: second read-out of MT1-MMP act inh, no call of its own (marks repeat the call); RFP signal change, %; measured here: RFP expression control read;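 0 = vehicle wells; hits needed this value within 50% of zero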
Numbers without * were called inactive; i = inactive; nt = not tested or not shown; + = active, no number; & = joins results of further samples.

SMILES	HIV Env fusion	PABP polyA inh	Rce1 inhib	eIF4H FP inh	UUG fidelity	CSC inhib	MT1-MMP act inh	MT1-MMP act inh RFP
Cc1cc(C)nc(NS(=O)(=O)c2ccc(NC(=S)NC(=O)c3cccnc3)cc2)n1	-23.7	-3.7	i	-1.2	nt	16.0	-1.0	3.8
CN(CC(=O)NCCc1ccc(S(N)(=O)=O)cc1)Cc1c(F)cccc1Cl	9.7	11.9	i	-4.9	-10.7	8.3	1.4	1.2
O=C(COC(=O)c1ccccc1)Nc1ccc2[nH]c(=O)[nH]c2c1	7.9	nt	i	nt	-3.3	-0.6	7.6	1.8
Cc1ccc(OCC(=O)Nc2ccc3c(c2)C(=O)NC3=O)cc1	-2.3	2.8	i	-1.6	-11.8	8.8	-2.8	3.8
COc1ccc(/C=C2\SC(N3CCCCC3)=NC2=O)cc1	6.1	-5.2	i	-9.8	-5.3	5.6	0.4	1.8
CC(=O)c1ccc(NC(=O)COC(=O)Cc2ccsc2)cc1	nt	nt	nt	nt	-24.0	-14.9	1.2	4.9
S=c1[nH]nc(-c2cccnc2)n1-c1ccccc1	nt	0.1	i	-2.4	-11.8	-3.6	3.8	1.3
COc1cc(C(=O)N/N=C2\CCS(=O)(=O)c3ccc(F)cc32)cc(OC)c1OC	8.7	10.8	i	1.3	-15.9	-2.3	4.8	2.1
Nc1ccn([C@@H]2O[C@H](C(=O)N[C@H](CO)Cc3ccccc3)[C@@H](O)[C@H]2O)c(=O)n1	-1.5	nt	nt	nt	-9.3	nt	-1.0	2.7
CCOC(=O)C1=C(C)NC2=C(C(=O)CC(C)(C)C2)C1c1ccsc1 (configuration not stated)	nt	-11.5	i	-10.0	0.2	-5.0	-5.7	-4.9
COc1cccc(-c2cc(C(F)(F)F)n3ncc(S(=O)(=O)c4ccccc4)c3n2)c1	0.5	0.9	+	0.1	-18.2	13.8	-2.0	6.6
O=C(CN1CCN(CC(=O)c2ccccc2)CC1)c1ccccc1	5.3	nt	nt	nt	-17.7	nt	-0.9	3.5
CCn1c(C)[n+](CC(O)COCC2CC=CCC2)c2ccccc21 (configuration not stated)	-42.3	nt	i	nt	-14.1	-3.1	3.7	-10.4
COc1ccccc1C(=O)N(CN1CCCC1=O)c1cccc(Cl)c1	2.3	8.9	i	-4.0	-13.3	-3.6	-4.5	1.0
O=C(c1[nH]ncc1-c1ccccc1)C1CO1 (configuration not stated)	3.1	5.7	i	14.8	nt	-12.2	3.7	4.9
COc1ccc(Nc2nc(N)nc(CSC(=S)N3CCCCC3C)n2)cc1 (configuration not stated)	1.6	-4.8	i	1.8	nt	16.9	4.6	-3.6
CCOc1ccc(N2CC(C(=O)N3CCCc4ccccc43)CC2=O)cc1 (configuration not stated)	-2.5	-0.4	nt	-7.4	-9.8	-16.2	3.4	8.4
CCn1c(C(=O)N2CCC(Cc3ccccc3)CC2)cc2sccc21	-4.9	0.9	i	-5.8	1.9	11.1	-3.0	1.4
CC(C)(C)C(=O)N1CCN(c2ccc([N+](=O)[O-])c(-n3nc(-c4ccccc4)c4ccccc4c3=O)c2)CC1	-16.5	2.0	i	3.0	-15.1	6.8	-4.9	-9.1
COc1cc(NC(=O)Cn2cnc3c(NCc4ccccc4)ncnc32)cc(OC)c1OC	25.2	nt	nt	nt	-8.4	nt	4.8	1.0
Cc1cccc(C)c1NC(=O)CNC(=O)C(C)NC(C)c1ccccc1Br (configuration not stated)	6.1	nt	nt	nt	-13.4	0.9	1.0	3.1
CCc1ccc(N2C(=O)c3ccc4c5c(ccc(c35)C2=O)CC4)cc1	-122.7	10.2	i	42.1	nt	-1.6	3.2	3.6
O=C(Nc1c2c(nc3ccccc13)CCCC2)c1cccc([N+](=O)[O-])c1	nt	0.9	i	-2.7	nt	4.5	8.5	-1.6
CC(C)c1ccc(-c2csc(NC(=O)c3cccs3)c2C(=O)O)cc1	-6.4	8.7	i	-2.2	-12.0	40.5	-4.9	-10.2
Cc1noc(C)c1CSCC(=O)NCCN1C(=O)S/C(=C\c2ccccc2F)C1=O	-0.6	nt	i	nt	-14.8	-10.8	1.9	1.3

Additional structures follow.
SMILES	HIV Env fusion	PABP polyA inh	Rce1 inhib	eIF4H FP inh	UUG fidelity	CSC inhib	MT1-MMP act inh	MT1-MMP act inh RFP
CCC(CC)C(=O)Nc1cc(C(=O)OC)cc(C(=O)OC)c1	-70.4	0.7	i	-2.8	-6.9	-0.9	-2.6	-6.5
O=C(CSc1n[nH]c(-c2cc(Cl)ccc2Cl)n1)NCCN1C(=O)CSC1=O	-1.7	-4.2	i	3.9	nt	-7.9	-1.9	-1.2
CC(NC(=O)COC(=O)/C=C/c1ccc(Cl)cc1)c1ccccc1 (configuration not stated)	27.6	8.4	i	-1.6	-3.0	4.3	0.7	0.3
N#CCSc1ncnc2c1cnn2CCO	nt	1.9	i	1.7	-19.8	-8.0	5.2	-13.7
CCC1(C)Cc2c(sc3c2c(=O)n(C)c2nnc(SCCc4ccccc4)n32)CO1 (configuration not stated)	nt	3.1	i	-4.6	-4.6	-3.4	1.8	2.8
COc1ccc(CCNC(=O)CC2Nc3ccccc3NC2=O)cc1 (configuration not stated)	-13.3	22.8	i	3.9	nt	-7.8	-8.9	3.6
Nc1nc2c(-c3ccc(Br)cc3)nnn2c2ccccc12	-127.9	3.4	i	1.6	-12.8	0.3	-1.9	1.6
CC(=O)C(Sc1ncnc2sc3c(c12)CCCC3)C(C)=O	-2.0	-2.7	i	-3.4	nt	3.4	0.6	1.6
COc1ccc(CN2CCN(C(=O)c3cc(OC)c(OC)c(OC)c3)CC2)cc1OC	nt	-7.1	i	8.2	nt	-8.8	-1.3	4.2
O=c1[nH][nH]c(-c2ccccc2)c1C=Nc1ccccc1	-23.5	1.4	i	6.3	-27.6	-4.0	-0.9	1.7
Cc1ccccc1NC(=S)NNC(=O)c1cccnc1	17.5	0.2	i	9.7	-22.4	nt	-3.7	1.0
CCOP(=O)(c1ccccc1)C(O)c1ccccc1 (configuration not stated)	21.9	-3.4	i	-4.3	-2.9	nt	4.0	2.7
CCOC(=O)C1=C(C)N(C)C(=O)NC1c1ccc(C)s1 (configuration not stated)	nt	4.0	i	-13.0	6.2	nt	1.0	2.2
O=c1cc(CSc2nnc(COc3ccccc3Cl)o2)nc2sccn12	nt	7.4	i	11.7	3.8	-5.3	-0.8	5.5
Brc1cccc2sc(N3CCCC3)nc12	-18.9	-26.2	i	-4.9	nt	-10.8	1.3	-1.9
CCCN[C@H]1CCc2nc(N)sc2C1	-10.5	nt	i	nt	-10.5	-10.3&-3.3	4.1	0.2
Fc1ccc(CNCc2ccccc2C(F)(F)F)cc1	nt	6.3	i	5.9	nt	-3.7	1.8	1.9
Cc1ccc(OCCn2cc(C=O)c3ccccc32)cc1	-7.6	-2.1	i	-7.0	-13.3	-3.0	8.3	-13.1
CCC(=O)Nc1ccccc1C(=O)N1CCCC1	-41.6	-4.3	i	-5.8	-13.9	0.7	-2.8	3.1
CCn1c(=O)n(CC)c2cc(N3CCCC3)c(NC(=O)c3c(F)cccc3F)cc21	-0.8	0.4	i	-21.9	-25.4	-14.1	4.6	3.7
CC(C)CCOC(=O)C(C)Sc1n[nH]c(=O)[nH]c1=O (configuration not stated)	14.8	1.0	i	-3.3	nt	-7.5	-1.1	-0.2
CC(c1ccco1)N(C(=O)c1ccccc1F)c1ccccn1 (configuration not stated)	-10.8	44.4	i	7.0	nt	-12.6	0.0	6.2
Cc1ccc(SCC(=O)c2c(C)[nH]c3ccccc23)cc1	-12.0	3.6	i	1.9	nt	-4.6	-2.0	2.6
NNC(=O)C1CCCn2c1nc1sc3c(c1c2=O)CCCC3 (configuration not stated)	8.1	3.6	i	2.5	-19.9	-6.8	0.1	0.5
COc1ccccc1NC(=O)c1c(NC(=O)c2ccco2)sc2c1CCC2	nt	5.4	i	-3.0	-15.1	8.3	1.6	2.1

Entries of single compounds, looked up by structure.
Fc1ccc(CNCc2ccccc2C(F)(F)F)cc1 in the list: HIV Env fusion = nt; PABP polyA inh = 6.3; Rce1 inhib = i; eIF4H FP inh = 5.9; UUG fidelity = nt; CSC inhib = -3.7; MT1-MMP act inh = 1.8; MT1-MMP act inh RFP = 1.9
COc1ccc(CCNC(=O)CC2Nc3ccccc3NC2=O)cc1 (configuration not stated) in the list: HIV Env fusion = -13.3; PABP polyA inh = 22.8; Rce1 inhib = i; eIF4H FP inh = 3.9; UUG fidelity = nt; CSC inhib = -7.8; MT1-MMP act inh = -8.9; MT1-MMP act inh RFP = 3.6

(next part)
SMILES	HIV Env fusion	PABP polyA inh	Rce1 inhib	eIF4H FP inh	UUG fidelity	CSC inhib	MT1-MMP act inh	MT1-MMP act inh RFP
COc1cc(C)ccc1OCc1cc(C(=O)N2CCN(C)C[C@@H]2c2ccccc2)no1	-9.8	-0.4	i	-11.1	-0.7	5.5	-5.0	2.2
CC(C)c1nc(N2CCOCC2)c(C#N)c2c1COC(C)(C)C2	nt	-8.6	i	-13.1	2.9	-2.9	0.3	-0.5
O=C(CN1C(=O)NC2(CCCCC2)C1=O)Nc1ccc2c(c1)OCCCO2	nt	nt	nt	nt	-11.7	-10.8	3.9	0.9
c1ccc(N2CCN(Cc3cn4ccccc4n3)CC2)cc1	-23.1	-9.6	i	-5.5	nt	-15.0	0.8	2.3
CC(=O)Nc1ccc(/C(C)=N/NS(=O)(=O)c2ccc(C)cc2)cc1	nt	0.7	i	-2.6	-15.2	-3.0	-1.7	0.1
Cc1cc(C)cc(C(=O)Nn2cnnc2)c1	-7.4	0.7	i	1.0	-17.6	-14.1	-1.6	1.8
COC(=O)c1ccc(NC(=O)C2CCN(C(=O)Nc3ccccc3)CC2)cc1	nt	nt	nt	nt	-4.0	7.8	4.7	1.8
CC(=O)Nc1ccc(Cl)cc1C(=O)O	nt	20.0	i	-3.6	-16.5	-5.5	-3.2	3.3
Cc1ccc(OCCn2c3ccccc3n3nc(C)c(=O)nc23)cc1	-32.5	-0.7	+	-2.9	nt	-5.9	nt	nt
CCOC(=O)N1CCN(C(=O)c2ccc(NC(C)=O)cc2)CC1	nt	4.4	i	-4.7	-30.4	nt	5.2	1.2
CSc1ccc(/C=C/C(=O)c2ccc(NC(C)=O)cc2)cc1	nt	-10.2	i	-7.3	-11.9	15.7	-2.4	-1.5
CC(C)(C(=O)N1CCC1(C)C(=O)NS(=O)(=O)c1cccc(F)c1)c1ccccc1 (configuration not stated)	-7.3	nt	nt	nt	2.6	nt	-3.8	5.2
Cc1cc(N/N=C/c2c[nH]c3ccccc23)c2ccccc2n1	2.2	-7.3	i	-11.9	-8.3	19.8	-0.7	-2.0
CCc1ccc(C2CC(=O)N(c3cccc(F)c3)C3=C2C(=O)OC3)cc1 (configuration not stated)	-10.1	-2.0	i	1.6	nt	-4.6	-3.7	-1.7
O=C(CN1CCN(C(=S)NC2CCCC2)CC1)Nc1ccc(Oc2ccccc2)cc1	2.2	2.6	i	-2.5	nt	32.0	-1.4	-14.1
COc1ccccc1NS(=O)(=O)c1ccc2c(c1)OCCO2	-5.1	3.2	i	-3.5	-18.3	nt	-11.6	0.8
COc1ccc(CCNC(=O)c2ccc(NC(=O)CC3SC(N4CCCCC4)=NC3=O)cc2)cc1 (configuration not stated)	8.0	nt	nt	nt	9.7	nt	-0.3	-3.5
Cc1cc(SCC(=O)OCC(=O)N(CCC#N)c2ccccc2)nc2ccccc12	-21.5	nt	i	nt	nt	-10.9	4.5	5.2

Screening data as filed in PubChem BioAssay.
